Mtb hypoxia rep = inhibitors of hypoxia-regulated fluorescent reporter in Mycobacterium tuberculosis. fluorescence inhibition, % (concentration not given with the values). actives 0.1% (n = 300,000). M. tuberculosis hypoxia-regulated fluorescent reporter, fluorescence;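 active means 35 to 45% if threefold the growth effect, above 45% if 1.5-fold the growth effect; inactive means the rest, general growth blockers included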;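 further: wells of about 50 µL received 100 nL stock; 0% = vehicle wells and 100% = reference inhibitor wells; whole bacteria with a GFP reporter of the hypoxia response; strong numbers were not always called active; many hits fall short of the cut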
Autofluor counter = counter-screen for toxin protease inhibitors: compound fluorescence; compound autofluorescence counterscreen, microsphere flow cytometry; hits give high values; actives 3.1% (n = 360,000); AID 624483; fluorescence intensity (concentration not given with the values);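 active means at least 3 SD above the mean of all compounds, about 16000 in these data; inconclusive means too few beads counted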;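 further: 100 nL of 1 mM stock went into each well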
BJeLR viability = kills HRASV12-expressing BJeLR cells | inhibition, % (no concentration beside the values) | actives 0.17% (n = 300,000) | BJeLR (HRASV12) viability, CellTiter-Glo ATP luminescence, 48 h; reference of the scale not given here;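 active means replicate mean above 50%; inconclusive means above 50% but judged a plate artefact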;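 further: 50 nL library stock added to about 25 µL; numbers are from one replicate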
Sa ugtP lethal = compounds lethal to S. aureus RN4220 ugtP deletion mutant. actives 0.54% (n = 330,000). OD600 growth, 16 h; some inactives read as strong as hits. growth inhibition, % (no concentration beside the values);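 active means z-score under -3 and OD600 up to 0.15 on both plates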;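 further: plate controls were untreated wells for no effect and antibiotic for full effect; wells of about 80 µL received 100 nL stock; the first replicate is given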
Sa RN4220 lethal = S. aureus RN4220 growth inhibition. OD600, 16 h. inhibition, % (concentration not given with the values). actives 0.33% (n = 330,000). AID 1259311;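 active means z-score of -3 or lower and OD600 up to 0.18 on both plates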;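 further: plate controls were untreated cells for no effect and reference antibiotic for full effect; stock transfer was 100 nL into about 80 µL; one replicate is shown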
PrP 5UTR inh = suppresses PrP 5' UTR mRNA reporter expression | inhibition, % (test concentration not listed) | AID 488862 | actives 0.35% (n = 340,000) | cell-based PrP 5' UTR mRNA reporter, plate reader;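 active means every replicate at 50% or more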;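 further: 0 = median of the neutral control wells; tested in H4 reporter cells; numbers are from one replicate; inactives centre near -14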
Mtb hypoxia rep growth = further read-out of Mtb hypoxia rep, marked with its call; growth inhibition, %; measured here: M. tuberculosis growth (absorbance);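 0% = vehicle and 100% = reference antibiotic; read after six days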
Numbers without * were called inactive; ? = inconclusive; / = no result given.

A first look, three compounds:
mol	Mtb hypoxia rep	Mtb hypoxia rep growth	Autofluor counter	BJeLR viability	Sa ugtP lethal	Sa RN4220 lethal	PrP 5UTR inh
COc1ccc(CN(CC(=O)NCC2CCCO2)C(=O)CCC(=O)Nc2cc(C)ccn2)cc1 (centres undefined)	/	/	2906	-5	8	-1.0	-26
N/C(=N\OC(=O)CCCc1ccccc1)c1ccc([N+](=O)[O-])cc1	/	/	2167	3	/	/	-3
COc1ccccc1NC(=O)N1CCC(NC(=O)C2CCCCC2)CC1	-3	-12	3813	-5	6	1.9	-1

All compounds of this part, repeating the preview:
mol	Mtb hypoxia rep	Mtb hypoxia rep growth	Autofluor counter	BJeLR viability	Sa ugtP lethal	Sa RN4220 lethal	PrP 5UTR inh
COc1ccc(CN(CC(=O)NCC2CCCO2)C(=O)CCC(=O)Nc2cc(C)ccn2)cc1 (centres undefined)	/	/	2906	-5	8	-1.0	-26
N/C(=N\OC(=O)CCCc1ccccc1)c1ccc([N+](=O)[O-])cc1	/	/	2167	3	/	/	-3
COc1ccccc1NC(=O)N1CCC(NC(=O)C2CCCCC2)CC1	-3	-12	3813	-5	6	1.9	-1
COc1ccc(Cl)cc1N=Cc1c(O)cc(C)oc1=O	4	3	11196	1	16	8.4	-13
CCCC(=O)Nc1ccccc1NC(=O)CN(C)S(=O)(=O)c1ccccc1	/	/	2399	-5	0	-2.1	-8
Fc1ccc(C2=CC(c3cccs3)n3nnnc3N2)cc1 (centres undefined)	/	/	3779	-1	3	5.3	-8
Cc1ccnn1CCC(=O)N1CCCC(N2CCN(c3cccc(Cl)c3)CC2)C1 (centres undefined)	8	10	5718	5	3	3.1	-13
O=C(COC(=O)CNC(=O)c1cc(Cl)cc([N+](=O)[O-])c1)NC(=O)NCc1ccco1	10	5	2785	/	4	4.7	-12
CN1CCN(C(=O)CSc2nc(-c3cccs3)cc(-c3cccs3)c2C#N)CC1	9	24	4386	-2	-22	0.8	-16
Oc1ccc(Br)cc1C=Nc1cccn2cc(-c3ccccc3)nc12	-1	12	4431	14	8	10	-56
Clc1ccc(Cn2cc(Br)cn2)cc1Cl	/	/	10607	4	23	3.3	-37
CCCSc1nc(-n2ncc(C#N)c2N)c2c3c(sc2n1)CCC(C)C3 (centres undefined)	2	-3	9779	-8	6	7.6	/
COc1cccc(CNC(=O)C(=O)NCC2CCCN2S(=O)(=O)c2cc(C)ccc2C)c1 (centres undefined)	4	5	6258	4	11	4.7	-22
COc1ccc(NC(=O)CC2C(=O)N(c3cccc(OC)c3)C(=O)N2C2CCCCC2)cc1 (centres undefined)	5	8	10915	-13	10	3.9	-11
COCCCNC(=O)CN(c1cc(Cl)cc(Cl)c1)S(C)(=O)=O	5	10	15814	-2	2	4.7	-26
O=C(CCN1C(=O)c2ccccc2S1(=O)=O)Nc1nc2c(s1)CCCC2	5	-1	10549	-8	17	7.2	-27
O=C1N(Cc2cccnc2)C[C@@H]2C[C@@H](c3ccccc3C(F)(F)F)N3CCC[C@@]123	-10	2	4722	6	-8	-1.9	2
Cc1ccc(C)c(CN2CCCNC2=O)c1	2	0	10852	-11	9	5.5	-3
COc1ccc2nc(NC(=O)C3=NN(c4ccccc4)C(=O)CC3)sc2c1	0	1	2402	2	-3	13	-15
COc1cnc(-c2ccccc2)nc1Oc1ccc(Cl)cc1C	13	9	3317	0	8	-0.3	-10
O=C(NCc1ccco1)c1cc([N+](=O)[O-])ccc1N1CCCCC1	-1	-6	2284	5	4	0.3	-20
O=[N+]([O-])c1cccc(N=NN(CCO)c2cccc([N+](=O)[O-])c2)c1	10	2	10414	0	-14	1.9	-9
O=C1CCCC2=C1C(c1cccs1)n1ncnc1N2 (centres undefined)	-2	-4	9339	-8	5	4.2	-82
c1ccc(C2CCC(N3CCNCC3)CC2)cc1 (centres undefined)	3	-2	2148	-5	6	3.1	-14
COc1ccc(-n2nc3c(c2NC(=O)CCCCl)CSC3)cc1	5	-3	4551	-4	-8	5.2	-15

An excerpt from above, limited to Mtb hypoxia rep growth, Sa RN4220 lethal and Mtb hypoxia rep.
smiles | Mtb hypoxia rep growth | Sa RN4220 lethal | Mtb hypoxia rep
O=C(COC(=O)CNC(=O)c1cc(Cl)cc([N+](=O)[O-])c1)NC(=O)NCc1ccco1 | 5 | 4.7 | 10
CN1CCN(C(=O)CSc2nc(-c3cccs3)cc(-c3cccs3)c2C#N)CC1 | 24 | 0.8 | 9

Next results follow:
mol	Mtb hypoxia rep	Mtb hypoxia rep growth	Autofluor counter	BJeLR viability	Sa ugtP lethal	Sa RN4220 lethal	PrP 5UTR inh
O=C(Oc1cc(-c2ccccc2)no1)c1ccc(Cl)cc1	/	/	2898	-8	2	-1.4	-15
CC(=O)c1c(N2CCN(Cc3ccc4c(c3)OCO4)CC2)nc(=S)n(-c2ccccc2)c1C	14	12	14254	-5	-10	3.9	-8
NCCCNC(=O)c1cc2ccccc2[nH]1	15	19	3507	6	-8	-9.9	-7
CS(=O)(=O)c1cccc(NC(=O)C2CCCN2S(=O)(=O)c2ccc(F)cc2)c1 (centres undefined)	5	0	4254	5	6	3.3	-9
COc1ccc(O)c(CN2CC3CCC(CC3)C2)c1	4	6	3680	/	2	2.6	15
CC(NC(=O)/C=C/c1ccc(Br)cc1)c1ccccc1 (centres undefined)	-5	1	1977	-10	2	-3.4	-27
Nc1c(N(Cc2ccccc2)C(=O)COc2ccc(F)cc2)c(=O)[nH]c(=O)n1Cc1ccccc1	2	6	?	3	9	0.9	-7
O=C1CCCC(O)=C1C=Nc1ccc2c(c1)oc1ccccc12	18	11	3220	-1	-3	-10	-23
O=C(O)c1ccc(/C=C2\SC(=S)N(Nc3ccccc3)C2=O)cc1	-6	-6	?	0	-10	3.0	2
CCCCCc1c2c(cc(O)c1C(=O)O)OC(=O)c1cc(C(=O)CCCC)c(OC)cc1O2	/	/	5331	/	1	1.2	-6
CCCN(CC(=O)Nc1ccc(F)c(F)c1F)C(=O)c1cc([N+](=O)[O-])ccc1N1CCOCC1	12	6	5225	1	6	0.8	-25
O=[N+]([O-])c1cc(-c2csc(NCCc3nc4cc(C(F)(F)F)ccc4n3CCCO)n2)ccc1Cl	4	1	3651	-8	0	-7.3	-5
O=C(COC(=O)c1cc([N+](=O)[O-])ccc1N1CCOCC1)Nc1ncc(Cl)cc1Cl	4	1	6206	-6	11	2.7	-26
N#Cc1cc(N2CCOCC2)nc2ccccc12	-5	-5	4961	7	-8	0.0	-14
Cc1cc(C)c2c(N)c(C(=O)NNC(=O)c3ccccc3)sc2n1	-6	-5	4563	-4	10	9.1	-40
C=CCn1c(SCc2nnc(-c3ccccc3)o2)nnc1C(O)c1ccccc1 (centres undefined)	5	4	15668	-4	8	5.7	-74
O=c1c(Cc2c(F)cccc2Cl)c(O)ccn1CCc1c[nH]c2ccccc12	5	6	3949	2	9	-0.5	-37
Clc1ccccc1Cn1c(/C=C/c2ccco2)nc2ccccc21	4	4	3385	22	-22	-3.9	-9
Cc1cnc(NC(=O)/C=C/c2ccc(Br)o2)s1	15	1	5029	5	6	-0.3	-49
COC(=O)[C@@H](NC(=O)NC1CCN(Cc2ccccc2)CC1)C(C)C	7	1	2694	-2	-2	-4.3	-9
COc1ccc2oc(C(=O)NCCN3CCOCC3)c(C)c2c1OC	-1	3	6124	-19	7	2.4	-16
O=C(Nc1ccc([N+](=O)[O-])cc1)c1cncc(Br)c1	-1	2	2382	7	-1	0.7	-14
Cc1ccc(NC(=O)CN(C)C(=O)Cn2cc(C(F)(F)F)ccc2=O)cc1	/	/	2521	2	/	/	-10
CCOC(=O)c1ccc(NC(=O)C2C3CCCCC32)cc1 (centres undefined)	8	11	2963	0	-5	-1.7	-45
O=C(Nc1cccnc1Cl)c1cc(-c2cccc(O)c2)on1	-1	1	5808	10	-7	2.7	-71
O=C(Nc1ccccc1F)c1ccc2c(c1)CCN2S(=O)(=O)c1ccccc1	4	13	5023	-1	5	0.2	5
COc1ccc(CC(C)NC2CCCCCC2)cc1 (centres undefined)	-3	-3	3562	-6	9	2.7	-8
Cc1cccc(N(C)C(=O)c2cc3c(=O)[nH]c4ccc(C)cc4c3s2)c1	-8	3	5439	19	-10	3.6	7
NS(=O)(=O)c1ccc(CCNC(=O)CN2CCCCC2)cc1	0	12	4864	0	2	5.4	-27
COc1ccc(S(=O)(=O)N/N=C(/C)c2cccc(NC(=O)c3ccccc3Cl)c2)cc1	/	/	2621	5	/	/	-20
O=C(/C=C/c1c(F)cccc1Cl)NCc1ccco1	/	/	2509	0	-1	5.0	-39
CN(c1cccc(NC(=O)c2cccc([N+](=O)[O-])c2)c1)S(C)(=O)=O	-1	11	4007	6	4	0.5	-30
O=C(CCc1ccco1)CCc1ccco1	13	10	3898	/	6	5.7	-34
CCOC(=O)Nc1cccc(C(=O)O)c1	4	4	3164	-7	-2	-8.0	-6
Cc1cc(C(=O)O)oc(=O)c1	12	-1	6063	-16	10	3.0	-28
CCCC(CCC(=O)Nc1ccc(S(N)(=O)=O)cc1)C(=O)O (centres undefined)	1	5	9042	-3	-7	-2.3	-16
COc1ccc(S(=O)(=O)N2CCCCC2)cc1NC(=O)C1CC(=O)N(Cc2ccco2)C1 (centres undefined)	0	9	3810	/	0	2.7	-7
O=[N+]([O-])c1ccc2[nH]c(=S)sc2c1	9	2	4159	/	35	54	-3
CCOC(=O)N1CCC(NCCNC(=O)c2ccccc2Cl)CC1	20	10	3764	-5	3	3.5	-22
CC(C)Oc1ccc(CCC(=O)NNC(=O)CCC(=O)O)cc1	11	13	4238	10	13	3.6	-29
Cc1ccc(OCC(=O)Nc2ccccc2C(=O)N2CCCC2)cc1	-4	6	5879	-5	1	0.1	-17
CCN(CC)C(=O)C1CCN(c2ncnc3c2cnn3-c2ccc(C)cc2C)CC1	/	/	3693	10	-3	0.3	-16
Cc1ccc(NC(=O)c2ccc(S(=O)(=O)NCC3CCCO3)cc2)cc1 (centres undefined)	8	4	6242	-2	-2	3.0	-12
O=C(NCc1ccccc1)c1ccc(OCC2CCCO2)cc1 (centres undefined)	3	1	2207	6	5	0.7	-4
COc1ccc(Nc2cc(C(=O)NCc3ccco3)c3ccccc3n2)cc1	2	1	/	11	-1	2.6	/
COc1cc(CNCCc2ccccc2)ccc1OCc1ccc(Cl)nc1	8	5	11137	-5	-10	-2.4	-11
CCN(CC(=O)NCCC1=CCCCC1)S(=O)(=O)c1ccccc1	13	9	3269	8	7	2.7	-3
COc1cccc(CN(C)C(=O)CC2C(=O)NCCN2C2Cc3ccccc3C2)c1 (centres undefined)	5	-1	?	6	12	4.7	-3
C[C@H](CO)N1C[C@H](C)[C@@H](CN(C)Cc2ccc3c(c2)OCO3)Oc2c(NC(=O)C3CC3)cccc2C1=O	8	6	3638	/	0	-9.4	1
Cc1ccc(CN2CCN(Cc3nc4c(s3)CCCC4)CC2CCO)cc1 (centres undefined)	/	/	4417	8	/	/	-27

Following part.
mol	Mtb hypoxia rep	Mtb hypoxia rep growth	Autofluor counter	BJeLR viability	Sa ugtP lethal	Sa RN4220 lethal	PrP 5UTR inh
COc1ccc(C(=O)N/N=C(\C)c2ccccn2)cc1OC	/	/	?	74*	/	/	27
C=CCNC(=O)COC(=O)c1ccc(C)c(NC(=O)c2ccco2)c1	5	1	4094	1	-11	-3.3	-22
C/C(=N\NC(=O)C1CC1)c1ccc(OC(F)F)cc1OC(F)F	/	/	6196	-8	/	/	-14
CCOc1cccc2cc(C(=O)Nc3cc(C)on3)c(=O)oc12	10	5	24162*	5	7	5.6	-5
O=C(NNc1cc(N2CCCC2)nc(N2CCCC2)n1)c1ccc([N+](=O)[O-])cc1	-1	5	4770	-3	-5	-0.8	-21
COc1ccccc1NC(=O)/C(C#N)=C/c1cccn1C	5	5	6040	2	-6	2.0	-88
CCCc1cc(-c2n[nH]c(=S)n2CC)c2ccccc2n1	-7	-7	2625	-2	-5	4.7	-25
CN(C)S(=O)(=O)Oc1ccsc1C(=O)Nc1cccc(Cl)c1Cl	6	14	4207	5	-12	-8.7	-8
O=S(=O)(CS(=O)(=O)c1ccc(Cl)cc1)c1ccc(Cl)cc1	8	2	5878	-14	2	2.5	-18

High-throughput results: PubChem, several laboratories
